HNF4A DNA FP – change in binding of human HNF4 alpha to DNA; P41235; AID 1224865; activity change, % at 10 µM; HNF4a-FITC DNA binding, fluorescence polarization, 1 h; 360,000 compounds, 0.3% hits; in the data active means activity change above about 30%, passing the limit was not always enough;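 further: controls were the assay level and a saturating level of protein; the project sought stronger binding though the title names inhibitors; some compounds called inactive have numbers as strong as hits; positive values seem to mean higher polarization but the record does not say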
E coli growth – E. coli growth inhibition; Escherichia coli growth, OD600, 23 h; active compounds read low; AID 1053175; 330,000 compounds, 0.21% hits; OD600 absorbance (concentration not given with the values);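 active means OD600 absorbance below the run mean of sample wells minus 3.6 SD, in any replicate, cut at about 0.56 in these data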;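 further: stock transfer was 300 nL into about 60 µL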
FGF22 binding – FGF22 (human) thermal shift binding | 340,000 compounds, 1.5% hits | calls only at 9.99 µM | recombinant FGF22 thermal shift, SYPRO orange fluorescence; percent of sucrose octasulfate shift, DMSO zero | AID 651658 | Q9HCT0;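 active means melting point raised past a set limit in the mean and every replicate; inconclusive means no clear call; three in four hits are not shown here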
Target sequence (Q9HCT0 whole entry, looked up): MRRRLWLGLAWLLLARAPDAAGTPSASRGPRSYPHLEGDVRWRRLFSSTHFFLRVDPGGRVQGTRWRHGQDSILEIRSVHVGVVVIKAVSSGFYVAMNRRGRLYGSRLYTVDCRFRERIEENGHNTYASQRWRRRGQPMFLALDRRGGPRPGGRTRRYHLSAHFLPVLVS
Vif A3G – HIV-1 Vif–A3G interaction blockers – biochemical, TR-FRET, GST-Vif 1-94, biotin-A3G peptide, dose response retest, primary screen (AID 1117319). TR-FRET GST-Vif / biotin-A3G peptide binding; higher % means a stronger effect; test concentration not given here; strong numbers were not always called active. one-dose inhibition, %; IC50 in µM for titrated hits. 260,000 compounds, 0.57% hits;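 active means above the screen mean plus three standard deviations and confirmed in dose response; inconclusive means results disagree or hit not tested in dose response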;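 further: Vif residues 1-94 fused to GST binding biotinylated APOBEC3G peptide 110-148; 0% = full assay without inhibitor and 100% = GST in place of GST-Vif; retest series ran down from 100 µM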
UCH37 DUB inh – blocks the human deubiquitinase UCH37; purified proteasome/UCH37, Ub-AMC cleavage fluorescence; inhibition, % (concentration not given with the values); 330,000 compounds, 0.33% hits;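 active means mean of two replicates above 20%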;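 further: 0% = compound-free wells with enzyme and 100% = wells lacking proteasome; stock transfer was 100 nL into about 20 µL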
Target sequence (Q9Y5K5 whole entry, looked up): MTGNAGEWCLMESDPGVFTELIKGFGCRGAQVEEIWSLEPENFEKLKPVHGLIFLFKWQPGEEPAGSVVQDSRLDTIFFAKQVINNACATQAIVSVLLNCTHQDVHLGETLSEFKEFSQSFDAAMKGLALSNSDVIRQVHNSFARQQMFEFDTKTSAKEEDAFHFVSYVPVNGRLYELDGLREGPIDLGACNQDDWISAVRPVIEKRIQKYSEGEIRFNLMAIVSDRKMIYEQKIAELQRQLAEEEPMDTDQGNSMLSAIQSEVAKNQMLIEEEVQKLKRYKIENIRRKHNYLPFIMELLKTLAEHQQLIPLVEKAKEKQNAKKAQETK
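system = Proteasome-associated human UCH37 deubiquitinase | amount = 0.15 nM proteasome as dispensed | medium = pH 7.4 Tris-HCl (50 mM) with ovalbumin, ATP-MgCl2, DTT | incubation = 30 min preincubation with enzyme, 25 min cleavage at room temperature | detection = AMC fluorescence 355/460 nm | read-out basis = percent inhibition | controls = no-proteasome and no-compound wells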
MLL AF4-AF9 inh – MLL-AF4/AF9 protein interaction inhibition. 350,000 compounds, 0.47% hits. AlphaScreen, biotin-AF4 peptide binding to FLAG-AF9. inhibition, % at 10 µM. P42568;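 active means every replicate reaching a set inhibition limit, whatever the replicate mean, cut at about 25% in these data; inconclusive means mean inhibition reaches that limit but some replicates miss it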;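 further: 0% = plate neutral control median and 100% = total signal loss; the record names both 10 and 1 µM as test concentration; the first replicate is given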
Target sequence (P42568 whole entry, looked up): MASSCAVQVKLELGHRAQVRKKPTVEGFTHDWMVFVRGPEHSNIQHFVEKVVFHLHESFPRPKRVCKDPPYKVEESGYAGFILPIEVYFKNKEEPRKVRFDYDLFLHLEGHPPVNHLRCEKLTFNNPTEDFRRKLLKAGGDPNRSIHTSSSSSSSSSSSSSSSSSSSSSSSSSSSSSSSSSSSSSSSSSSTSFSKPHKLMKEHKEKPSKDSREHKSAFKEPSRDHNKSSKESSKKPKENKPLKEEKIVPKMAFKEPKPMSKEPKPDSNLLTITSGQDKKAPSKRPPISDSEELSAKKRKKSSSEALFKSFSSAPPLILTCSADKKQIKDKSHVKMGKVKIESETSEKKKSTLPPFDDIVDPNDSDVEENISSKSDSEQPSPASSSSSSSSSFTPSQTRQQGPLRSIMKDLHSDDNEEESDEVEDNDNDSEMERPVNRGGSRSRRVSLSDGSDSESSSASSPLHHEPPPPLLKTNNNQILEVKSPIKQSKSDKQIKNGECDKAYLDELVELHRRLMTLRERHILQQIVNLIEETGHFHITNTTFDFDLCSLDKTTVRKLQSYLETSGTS
RanGTP-Imp inh – inhibitors of RanGTP-importin-beta interaction, primary screen, biochemical, FRET, CFP-Ran, YFP-importin-beta, homogeneous | cell-free CFP-Ran/YFP-importin-beta FRET ratio | inhibition, % (no concentration beside the values) | 300,000 compounds, 1.1% hits | AID 2216;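 active means most replicates above 15%; inconclusive means exactly half above 15%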;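 further: 0% = DMSO wells and 100% = Ran loaded with GDP instead of GTP; wells of about 40 µL received 100 nL stock; the first replicate is given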
* marks the source's active call; other numbers are inactive results; i = inactive; ? = inconclusive; nt = no result given. An excerpt; count on the stated rates, not on these rows.

SMILES	UCH37 DUB inh	E coli growth	RanGTP-Imp inh	HNF4A DNA FP	FGF22 binding	MLL AF4-AF9 inh	Vif A3G
CCNC(=O)CCc1nc(-c2ccc(C(C)(C)C)cc2)no1	8.4	0.681	1.7	2.8	nt	nt	-1.1%
CC(C)[C@@H](C(=O)NC1CCCC1)N1C(=O)N2CCc3c([nH]c4ccccc34)[C@@]2(C)C1=O	1.9	0.743	3.1	2.5	i	9.3	nt
CC(=O)N1c2ccc(F)c(F)c2C[C@H]1C	2.5	nt	nt	0.4	i	-21.9	nt
C(/C=C/c1ccccn1)=C\c1ccccc1	-1.5	0.625	?	-1.3	i	0.5	nt
COc1ccc(N2C(=O)C(CC(=O)Nc3ccc(Cl)cc3)N(NC(=O)c3cccc(F)c3)C2=S)cc1 (stereo not given)	1.5	0.728	-3.7	1.6	i	2.7	2.5%
CC1CCN(c2ccc(-c3ccc(NC(=O)c4ccco4)cc3)nn2)CC1	-4.2	0.625	1.0	-4.3	i	-4.4	10.7%
COc1ccc(Cl)cc1NS(=O)(=O)N1CCOCC1	-0.4	0.667	-3.5	1.6	i	-1.3	-4.4%
CN(CC(=O)Nc1ccccc1Cl)C(=O)CSc1nnc(-c2ccco2)o1	-1.0	0.662	-3.2	-0.2	i	-2.8	-17.2%
Cc1ccccc1-c1nnn(Cc2ccc(-c3nn[nH]n3)cc2)n1	0.5	0.689	-5.0	-1.2	i	-2.7	-3.3%
NC(Cc1ccccc1)c1csc(Nc2ccc(C(=O)NCCCO)cn2)n1 (stereo not given)	nt	nt	nt	1.4	i	2.1	nt

Quoted at random: two records from the list
SMILES	UCH37 DUB inh	E coli growth	RanGTP-Imp inh	HNF4A DNA FP	FGF22 binding	MLL AF4-AF9 inh	Vif A3G
NC(Cc1ccccc1)c1csc(Nc2ccc(C(=O)NCCCO)cn2)n1 (stereo not given)	nt	nt	nt	1.4	i	2.1	nt
Cc1ccccc1-c1nnn(Cc2ccc(-c3nn[nH]n3)cc2)n1	0.5	0.689	-5.0	-1.2	i	-2.7	-3.3%

The results go on:
SMILES	UCH37 DUB inh	E coli growth	RanGTP-Imp inh	HNF4A DNA FP	FGF22 binding	MLL AF4-AF9 inh	Vif A3G
Cc1cc(=O)[nH]c(N/N=C/C2=C(N3CCOCC3)C(=C\c3ccc(Cl)cc3)/CC2)n1	nt	nt	-2.2	8.9	i	8.7	?
CCc1nc(SCC(=O)NNC(=O)c2ccc(C)cc2)c2ccccc2n1	3.6	0.676	2.4	-5.2	i	-0.1	nt
Cc1ccc(O)c(CNc2cccc(C)n2)c1	1.3	0.61	2.9	4.3	i	-5.2	-4.6%
COCCN1C(=O)C(=O)/C(=C(/O)c2cccc(OC)c2)C1c1ccco1 (stereo not given)	10.8	0.663	-2.2	-6.8	nt	nt	23.3%
COc1ccc(S(=O)(=O)N2CCCCC2)cc1NC(=O)c1ccc(Cl)nc1	1.2	0.716	nt	-1.6	i	-0.3	nt
COc1ccc(/C=C/C(=O)NNc2c(F)c(F)cc(F)c2F)cc1OC	-2.2	0.731	4.6	3.9	nt	nt	-10.3%
COC(=O)c1sc(NC(=O)c2cnccn2)c(C(=O)OC)c1C	-20.7	0.702	1.6	nt	nt	nt	nt
Cc1ccc(C(=O)OCC(=O)NCc2cccc(Cl)c2)cc1S(=O)(=O)N1CCCCC1	2.3	0.665	nt	-0.9	i	1.4	4.7%
COc1ccc(-c2cc(C(=O)N3CCOCC3)no2)cc1OC	4.3	0.67	-2.5	4.1	nt	nt	3.3%
C/C=C/c1ccc(OCCCNC(C)CC)c(OC)c1 (stereo not given)	0.4	0.699	4.8	-2.9	nt	nt	9.6%
O=[N+]([O-])c1ccccc1C=NN1CCCCCC1	-0.5	0.675	nt	-1.0	i	3.1	-0.8%
C/C(=N/NC(=O)c1nnn(-c2nonc2N)c1-c1ccccc1)c1ccncc1	nt	nt	3.0	0.7	i	0.1	nt
CC12CC(c3ccccc3O1)N(C(=O)c1ccc(Br)o1)C(=O)N2c1ccccc1 (stereo not given)	1.0	0.734	?	1.2	nt	nt	-3.5%
Cc1cc(CNC(=O)c2cccc3c2C(=O)c2ccc(-c4ccc(F)cc4OCc4ccccc4)cc2S3(=O)=O)c(C(F)(F)F)o1	-2.7	0.694	nt	-6.2	i	9.7	nt
CCOC(=O)c1nn(-c2ccc(C)cc2)c(=O)cc1OCC(=O)Nc1cccc(C)c1	-0.2	0.709	-1.9	-0.3	i	-1.3	-4.5%
O=C(Nc1cccc(C(=O)N2CCCCC2)c1)C1CC1	nt	nt	nt	0.5	i	-2.5	nt
NC(=S)N/N=C/c1ccc2cccc(OCc3ccccc3)c2n1	nt	nt	?	-0.6	i	-8.4	nt
CC(C)CC(=O)Nc1nnc(S(=O)(=O)N2c3ccccc3CC2C)s1 (stereo not given)	6.1	0.722	7.1	-0.7	i	-2.6	nt
Cc1ccc(C)c(NC(=S)N(C2CCCCC2)C(C)c2cccnc2)c1 (stereo not given)	0.6	0.65	7.6	0.5	i	1.6	3.7%
CN(C)c1ccc(-c2csc(C(O)c3ccccc3)n2)cc1 (stereo not given)	nt	nt	nt	1.2	i	10.0	nt
COc1ccc(N2CCN(C(=O)CSc3nnc(-c4cccnc4)n3-c3ccc(F)cc3)CC2)cc1	1.1	0.658	5.1	0.6	nt	nt	nt
CCc1ccccc1NC(=O)CC(=O)Nc1ccccc1CC	6.3	0.683	1.5	1.2	i	-4.2	nt
COc1ccc(CCNC(=O)C2CCC(=O)N2S(=O)(=O)c2ccc(C)cc2)cc1 (stereo not given)	3.0	0.677	3.6	-1.1	i	-0.9	nt
CCOC(=O)c1c(NC(=O)COC(=O)c2cnccn2)sc(C)c1C	-0.3	0.662	nt	-2.3	i	-0.3	nt
CC1=CC(=C2C=CC(=O)C=C2)C=C(C)N1C	3.9	0.658	5.5	nt	i	0.3	nt
O=C(CN1CCCC1)OCCCC1CCCCC1	3.2	0.693	-5.2	-0.7	i	nt	21.0%
COCCOC(=O)C1=C(C)NC(=O)NC1c1ccc(-c2ccc(F)cc2)o1 (stereo not given)	2.6	0.682	-1.2	2.0	i	8.6	-1.9%
O=C(O)Cn1nnc2ccccc21	3.7	0.698	4.6	-0.6	i	-7.5	1.6%
COc1cccc(-c2ccc3ncnc(NCc4cccc(C)c4)c3c2)c1	0.2	0.737	nt	-1.0	i	-2.2	nt
COc1cc2c(c(OC)c1OC)-c1c(cc(OC)c(OC)c1OC)C[C@](C)(O)[C@@H](C)C2	1.1	nt	0.2	1.9	i	-4.5	nt
CC1(C)NC(=O)N(CC(O)COc2ccc(-c3ccccc3)cc2)C1=O (stereo not given)	5.1	0.746	5.5	2.3	nt	nt	25.7%
O=C(O)CN1C(=O)CC(Cc2ccccc2)C1=O (stereo not given)	1.3	0.649	nt	1.6	nt	nt	5.0%
O=C1c2ccccc2C(=O)N1Cc1ccc2c(c1)OCO2	0.6	0.662	-1.9	0.4	nt	nt	6.6%
O=c1c(-c2ccc(Cl)cc2)coc2c(CN3CCCCC3)c(O)ccc12	-357.2	0.661	-0.1	0.5	i	2.7	3.8%
CCOc1ccc2nc(NC(=O)c3ccoc3C)sc2c1	-3.3	0.679	-0.3	0.9	nt	nt	0.2%
C/C(Cc1ccccc1)=N\NC(=O)CNC(=O)COc1ccccc1	nt	nt	0.7	-5.5	i	nt	6.4%
COc1cc(NC(=O)COC(=O)CNS(=O)(=O)c2ccc(F)c(F)c2F)cc(OC)c1	4.3	0.761	4.6	-2.6	i	-11.7	-7.7%
COc1cc(/C=C/C(=O)OCC(=O)Nc2c(C)n(C)n(-c3ccccc3)c2=O)ccc1OCC#N	-11.7	nt	1.0	1.2	i	-0.2	5.7%
Cc1onc(-c2ccccc2)c1C(=O)N/N=C/c1c(F)cccc1Cl	nt	nt	2.5	-0.7	i	2.7	nt
CCc1ccccc1N(CC(=O)NC(C)(C)C)C(=O)CCC(=O)Nc1ccccn1	5.6	0.709	5.0	-6.4	i	2.4	-6.7%
CC(C)Cn1c(-c2ccc(Br)cc2)c[nH]c1=S	5.9	0.671	-0.4	-5.3	i	-14.6	15.2%
COc1ccc([C@H]2CC(=O)C[C@@H](CCn3cc(-c4nccn4C)nn3)O2)cc1	nt	nt	nt	2.7	i	-4.8	nt
COc1ccc(S(=O)(=O)n2ccc(C)n2)cc1C	1.2	0.68	0.2	4.6	i	9.3	-0.6%
COc1ccccc1C(=O)OCC(=O)NCCNC(=O)COC(=O)c1ccccc1OC	0.2	0.733	0.4	0.7	i	-2.8	nt
COc1oc(C(=O)NC2CCCCC2)c(-c2ccc(Cl)cc2)c1S(=O)(=O)c1ccccc1	nt	nt	nt	5.0	i	1.0	-2.6%
COc1ccc([C@@H]2CC=C(C(=O)O)[C@H](c3ccc(Cl)cc3)N2S(=O)(=O)c2ccccc2C)cc1	3.2	nt	nt	1.2	nt	-3.5	nt
O=C(Nc1ccc(NC(=O)c2ccco2)nc1)c1cccnc1	1.9	0.742	?	-1.9	nt	nt	12.8%
C/C(=N/NC(=O)c1ccco1)c1cccnc1	nt	nt	-1.1	-0.4	i	-2.2	14.9%
CCOC(=O)N1CCN(C(=O)c2cc3c(-c4ccc(Cl)cc4)nn(C)c3s2)CC1	3.4	0.75	0.1	-3.0	i	-0.7	5.2%
CCc1nc2ccc(C(=O)Nc3ccc(C(N)=O)cc3)cn2c1N(C)CCC(C)C	nt	nt	nt	-5.0	i	-1.0	nt

(listing goes on)
SMILES	UCH37 DUB inh	E coli growth	RanGTP-Imp inh	HNF4A DNA FP	FGF22 binding	MLL AF4-AF9 inh	Vif A3G
O=C(CCc1ccccc1)N=C1SC2CS(=O)(=O)CC2N1Cc1ccccc1 (stereo not given)	0.7	0.674	2.2	-1.5	i	-2.7	nt
CC(=O)C1C(c2cccc(Oc3ccccc3)c2)NC(=O)NC1(O)C(F)(F)F (stereo not given)	-0.1	0.682	-1.7	-0.5	i	2.7	-1.3%
N#CCC(=O)Nc1ncn(Cc2ccccc2Cl)n1	3.4	0.632	-6.8	-1.9	nt	nt	-6.2%
CN(C)C(=O)CNc1ccn2nc(-c3cccc(Cl)c3)cc2n1	nt	nt	nt	0.0	i	-4.1	nt
C=C[C@@H]1c2cc(C)ccc2N(S(=O)(=O)c2ccc(C)cc2)[C@H](c2ccccc2)C1(C#N)C#N	0.1	nt	nt	-2.2	i	-12.1	nt
O=C(N/N=C/c1ccccc1Cl)c1n[nH]c2c1CCCC2	nt	nt	4.5	-1.6	nt	-3.8	?
C[C@@H]1CN(S(=O)C(C)(C)C)[C@@H](CCO)/C1=C\CCO (stereo not given in full)	5.2	0.67	nt	0.4	i	-4.8	-0.3%
Cc1cccc(NC(=O)COc2coc(CN3CCN(c4ccccc4)CC3)cc2=O)c1	-0.3	0.694	-0.5	1.2	i	-2.2	9.8%
COc1ccc(S(=O)(=O)Nc2ccccc2C)cc1	2.8	0.698	2.7	1.0	nt	nt	2.8%
Cc1c(CC(Cl)(Cl)Cl)c2c(n1O)CC(C)(C)CC2=O	2.7	0.732	-0.8	1.4	i	-1.5	23.3%
COc1ccc(C(=O)N2CC(=O)Nc3ccccc32)cc1S(=O)(=O)N1CCCC1	4.7	0.715	2.8	5.6	nt	-1.0	21.6%
FC(F)(F)c1cnc2c(-c3ccc(Cl)cc3Cl)noc2c1	-0.6	0.642	-1.2	-2.7	nt	nt	-0.7%
O=C(c1ccc([N+](=O)[O-])cc1)N1CCN(Cc2ccccc2)CC1	-0.5	0.624	1.2	-3.8	nt	nt	-2.1%
Cc1cc(NC(=O)CSc2ccc(-c3ccc4c(c3)OCO4)nn2)no1	1.4	0.718	1.6	nt	i	-2.2	11.3%
